Arbovirus inh: arbovirus infection inhibition; arbovirus infection cell-based antiviral screen; inhibition, % at 10 µM; actives 0.37% (n = 200,000); AID 1251;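 active means inhibition from about 30%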;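 further: bluetongue infection of BSR cells; cell survival read as ATP light after 72 h; 0% = infected wells without compound and 100% = uninfected wells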
Mtb betalactam: beta-lactam sensitization of Mtb H37Rv. M. tuberculosis H37Rv growth with meropenem, percent inhibition; hits of this screen are not shown here. inhibition, % at 25 µM. actives 0.27% (n = 330,000);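 active means about 74% or more and at least 40 points above the plate without the antibiotic, then above 30% in a dose series; inconclusive means first-round hits that could not be retested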;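 further: growth measured after seven days incubation then overnight dye step; 0% = bacteria only wells and 100% = bacteria with antibiotic; twin plates without the antibiotic show which effects depend on it; some results filed as inactive read as strong as hits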
YopH inh: inhibitors of Yersinia enterocolitica YopH tyrosine phosphatase | fluorescence Ex485/Em525 | inhibition, %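 (about 10 µM by stock and volumes)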 | actives 0.16% (n = 140,000) | AID 898;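 active means inhibition of 50% or more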;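 further: controls were vehicle for no effect and minimum signal wells for full effect; inactives centre near -20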
RecA splice inh: inhibitors of M. tuberculosis RecA intein splicing; P9WHJ3; cell-free RecA intein splicing, fluorescence; inhibition, %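 (about 9 µM by stock and volumes)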; actives 0.75% (n = 290,000); in the data active means inhibition above about 30%; inconclusive means no clear call, values can overlap the other calls;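 further: 0% = vehicle wells and 100% = reference inhibitor control wells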
Target sequence (P9WHJ3 whole entry, looked up, canonical isoform): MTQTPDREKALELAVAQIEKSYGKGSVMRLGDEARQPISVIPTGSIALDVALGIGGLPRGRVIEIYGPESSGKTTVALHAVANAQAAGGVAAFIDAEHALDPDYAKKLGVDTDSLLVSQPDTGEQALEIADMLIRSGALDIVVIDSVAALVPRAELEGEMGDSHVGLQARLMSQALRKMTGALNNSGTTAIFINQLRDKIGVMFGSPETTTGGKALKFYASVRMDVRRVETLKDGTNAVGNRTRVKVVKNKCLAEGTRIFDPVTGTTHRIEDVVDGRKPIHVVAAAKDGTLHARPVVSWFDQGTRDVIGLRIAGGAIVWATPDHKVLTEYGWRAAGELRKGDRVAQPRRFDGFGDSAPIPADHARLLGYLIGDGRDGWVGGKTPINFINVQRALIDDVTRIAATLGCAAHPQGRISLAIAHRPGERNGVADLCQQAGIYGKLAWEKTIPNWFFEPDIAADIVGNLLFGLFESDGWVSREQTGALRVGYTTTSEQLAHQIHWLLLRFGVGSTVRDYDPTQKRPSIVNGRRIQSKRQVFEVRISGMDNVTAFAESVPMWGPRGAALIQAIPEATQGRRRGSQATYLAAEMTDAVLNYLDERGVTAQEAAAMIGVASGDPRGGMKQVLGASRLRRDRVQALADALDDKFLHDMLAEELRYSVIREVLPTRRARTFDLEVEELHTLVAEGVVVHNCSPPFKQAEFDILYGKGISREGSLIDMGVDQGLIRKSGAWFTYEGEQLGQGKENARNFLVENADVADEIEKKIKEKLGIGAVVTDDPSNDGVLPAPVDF
Mtb growth: M. tuberculosis H37Rv growth inhibitors, H37Rv strain (AID 1626) | M. tuberculosis H37Rv growth inhibition; higher % means a stronger effect | inhibition, % at 10 µM; hits with a dose series show IC50 in µM | actives 0.95% (n = 220,000);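 active means confirmed in a dose series; inconclusive means inhibition above 80% but not taken into the dose series; inactive means below 80% or under 30% at every dose of the series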;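 further: bacteria incubated seven days before Alamar blue readout; 0% = bacteria only wells and 100% = bacteria with antibiotic wells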
Arbovirus inh repeat: second read-out of Arbovirus inh, no call of its own (marks repeat the call); inhibition, %; measured here: 10K subset replicate screen; many hits read low in the repeat;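 first of two repeat runs on a subset; 0% = infected and 100% = uninfected wells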
* hit, by the source's call; ? = inconclusive; · = no result given. A portion of the library, so the mix of outcomes need not match the whole.

SMILES	Arbovirus inh	Mtb betalactam	YopH inh	RecA splice inh	Mtb growth	others
CNC(C)C#Cc1c(-c2cc(OC)c(OC)c(OC)c2)noc1C (stereo unspecified)	·	90	·	2.7	·
COc1cccc(NC(=O)CSc2nnc(NC(=O)C3CCC3)s2)c1	·	0	·	-2.1	·
COc1ccccc1N1CCN(C(=O)c2cc(-c3ccccc3O)on2)CC1	·	-5	·	0.3	·
Cc1c(C(=O)N2CCC(n3nccc3NC(=O)C3CC3)CC2)[nH]c2ccc(Cl)cc12	·	4	·	-4.9	·
CS(=O)(=O)N(CC(=O)N1CCN(c2ccccc2)CC1)c1cc(C(F)(F)F)ccc1Cl	13	5	-6	3.5	0%
CCN(CC)S(=O)(=O)c1ccc(NN=c2c(=O)c3ccccc3c2=O)cc1	·	-8	·	2.6	0%
O=C(O)C(Cc1ccccc1)N=Cc1c(O)c2ccccc2oc1=O (stereo unspecified)	31*	·	·	-0.7	-5%
O=C(CCc1nc2ccccc2s1)OCc1ccccc1F	8	3	-5	4.6	19%
CSc1nc(Oc2ccc(=O)n(C)n2)nc(N(C)C)n1	-3	0	-72	-0.5	1%
CNC(=S)N1N=C(c2ccc(C)cc2)CC1c1ccc(OC)c(OC)c1 (stereo unspecified)	3	0	-7	5.4	-4%
CC(=O)Oc1ccc(-c2cccc(C(=O)OCC(=O)Nc3ccccc3Oc3ccccc3)c2)cc1	-9	7	-20	15	4%
CCOC(=O)CNC(=O)CN1C(=O)CCSc2ccccc21	4	1	-42	-1.1	-3%
COCCN1C(=O)N(C)[C@@H](c2ccccc2)C(C(C)=O)=C1C	·	-2	·	-4.9	15%
COCCN1C(=O)N[C@@H](c2ccc(Br)cc2)C(C(C)=O)=C1C	3	·	-12	·	-4%
Cc1ccc(C(=O)Nc2cc(Cl)ccc2Oc2ccccc2)cc1[N+](=O)[O-]	-10	4	-16	-0.9	0%
COc1ccc(/C=C/C(=O)NCc2ccc(F)cc2)cc1S(=O)(=O)N1CCOCC1	·	0	·	0.1	5%
O=C(CSCc1ccccc1Cl)NNC(=O)c1ccccc1	-1	35	-55	0.1	-6%
CCCCn1nnnc1SCC(=O)NCc1ccccc1	-1	6	-30	2.4	-11%
COc1ccccc1CNS(=O)(=O)c1cc(CN2C(=O)c3cccnc3C2=O)ccc1OC	·	2	·	-3.2	·
OCC1(CO)COC(c2cccnc2)N1 (stereo unspecified)	-4	-2	3	-0.4	-17%
Cc1ccc(C(=O)N2C(=O)c3cccc(N)c3C2=O)o1	·	2	·	-16	·
COc1ccccc1C(=O)Nc1ccnn1C1CCN(CCCc2ccccc2)CC1	·	5	·	-1.8	·
COc1ccc(-c2cc(C(F)(F)F)nc(S(C)(=O)=O)n2)cc1OC	-28	14	-42	42*	-3%	Arbovirus inh repeat=-30
CC(C)N(C(=O)CSc1nnc(CSc2ncccn2)n1C)C(C)C	-2	2	·	-2.9	-4%
O=C(Nc1ccccc1Cl)C(Cl)C(=O)c1ccccc1 (stereo unspecified)	3	·	·	·	1%
Cc1ccccc1CSc1nnc(C)c(=O)n1N	1	·	·	0.8	11%
Cc1c(Cl)c([N+](=O)[O-])nn1CCCC(=O)Nc1sc2c(c1C#N)CCC2	-2	6	-29	-1.0	-2%
CCSc1nc2c(c(=O)[nH]c(=O)n2C)n1C	3	8	-11	6.3	-1%
Cc1ccc(C(=O)NC(=S)N2CCN(C(=O)OC(C)(C)C)CC2)cc1Br	5	3	·	-3.1	73%
CN(C)c1ccc(C(CC(=O)O)NC(=O)c2ccc(Cl)cc2)cc1 (stereo unspecified)	8	-1	-13	-2.4	-10%

Structures above that contain a nitro group on carbon:
SMILES	Arbovirus inh	Mtb betalactam	YopH inh	RecA splice inh	Mtb growth	others
Cc1ccc(C(=O)Nc2cc(Cl)ccc2Oc2ccccc2)cc1[N+](=O)[O-]	-10	4	-16	-0.9	0%
Cc1c(Cl)c([N+](=O)[O-])nn1CCCC(=O)Nc1sc2c(c1C#N)CCC2	-2	6	-29	-1.0	-2%

Next records follow.
SMILES	Arbovirus inh	Mtb betalactam	YopH inh	RecA splice inh	Mtb growth	others
COc1ccc(C)cc1N(CC(=O)O)S(=O)(=O)c1ccc(C)cc1	6	-2	-12	-1.4	-3%
CC(C)n1c(SCC(=O)Nc2ccccc2N2CCOCC2)nc2c1c(=O)n(C)c(=O)n2C	-4	-5	7	-1.8	0%
O=C(O)CCCNc1ccc(S(=O)(=O)Nc2ccccc2C(=O)O)cc1C(=O)O	3	4	0	-1.5	-13%
O=C(CCNC(=O)c1ccccc1Cl)Nc1nc(-c2ccc(F)cc2)cs1	9	-7	-30	3.8	-12%
CCOC(=O)CSc1nnc(-c2ccc(S(=O)(=O)NCc3cccs3)cc2)o1	·	?	-5	1.4	?
O=C(NCc1ccco1)C(=S)N1CCCCC1	3	-8	·	-0.9	-2%
c1ccc2nc(-c3nccs3)ccc2c1	2	3	·	·	1%
CO[C@H]1C=CO[C@@]2(C)Oc3c(C)c(O)c4c(O)c(c5c(nc6cc(C)ccn65)c4c3C2=O)NC(=O)C(C)=CC=C[C@H](C)[C@H](O)[C@@H](C)[C@@H](O)[C@@H](C)[C@H](OC(C)=O)[C@@H]1C	3	·	·	6.7	?
COC(=O)c1cccc(S(=O)(=O)N(Cc2ccco2)Cc2cc3ccc(OC)cc3[nH]c2=O)c1	-1	-6	-4	-4.4	-7%
CCc1cc2c(NCC(=O)O)ncnc2s1	8	-5	-17	·	3%
COc1ccc(Cc2nnc(NC(=O)c3ccc(Cl)c([N+](=O)[O-])c3)s2)cc1	7	0	-13	1.3	-5%
CCOC(=O)N1CCN(C(=O)c2ccccc2NC(=O)COc2ccccc2C)CC1	0	7	-46	0.3	·	Arbovirus inh repeat=0
Cc1cc(C)cc(N(CC(=O)N2CCc3ccccc32)S(=O)(=O)c2c(C)noc2C)c1	4	-3	-48	·	-13%	Arbovirus inh repeat=0
CCCNC(=O)C1CCN(S(=O)(=O)c2ccc3nc4c(c(C(=O)O)c3c2)CCCCC4)CC1	1	5	-19	0.6	0%	Arbovirus inh repeat=3
O=C(Nc1ccc(F)cc1F)N1CCCN(c2ccc([N+](=O)[O-])cn2)CC1	·	-9	·	0.6	3%
CC(=O)C1C(c2ccc(Cl)cc2)NC(=O)NC1(O)C(F)(F)F (stereo unspecified)	6	-11	-25	-1.9	4%	Arbovirus inh repeat=6
CCOc1ccc(NC(=O)c2c3c(nc4ccccc24)CCC3)cc1	5	-6	·	·	-4%
COC(=O)c1[nH]c2ccccc2c1NC(=O)c1ccccc1[N+](=O)[O-]	-14	4	-19	2.8	-4%
c1ccc(-c2ccc(CN3CCSCC3)cc2)cc1	·	0	·	-0.7	·
CCCC(=O)n1nc(-c2cccnc2)nc1N	2	-1	-19	1.3	-2%
Cn1c(-c2c(N)n(CCCc3ccccc3)c3nc4ccccc4nc23)nc2ccccc21	-28	·	-26	-83	?
Cc1cc(N/C=C2\CCCCC2=O)no1	10	8	-21	2.0	2%
Cc1nn(C)c(C)c1NC(=O)CSc1nnc(C)n1-c1ccccc1	6	-15	-25	1.5	-5%
CCOc1ccccc1C(=O)N(CN1CCCC1=O)c1ccc(C)c(Cl)c1	-1	-6	-46	2.5	-3%
CCOC(=O)N1CCN(C(=O)Cn2ccc3c(OC)cccc3c2=O)CC1	7	0	·	1.5	-1%
COCCNc1nc(N)c([N+](=O)[O-])c(NCCO)n1	-5	1	-26	1.8	-4%
CP(=O)(COC(=O)c1ccccc1)COC(=O)c1ccccc1	-1	-5	-25	3.2	-16%	Arbovirus inh repeat=4
Cc1ccc(S(=O)(=O)N2CCC(Oc3ccc(-n4cnnn4)cc3)CC2)cc1	·	1	·	0.1	·
Cc1cc(C)n(Cc2ccc(C(=O)O)cc2)n1	-3	-2	-15	-2.4	-5%
COc1ccccc1/C=C/CN1CC(C)OC(C)C1 (stereo unspecified)	-3	?	3	-1.3	-1%
Cc1cc2cc(CCNS(C)(=O)=O)c(=O)[nH]c2cc1C	-1	-6	-53	-0.5	-5%
CCOc1ccc2[nH]c(=O)c(CN(CC3CCCN3CC)C(=O)NCc3ccccc3)cc2c1 (stereo unspecified)	0	-4	-11	2.8	-2%
Cc1cc2n(n1)C(c1ccc3c(c1)OCO3)Nc1ccccc1-2 (stereo unspecified)	-3	-10	-13	1.2	-3%
Cc1nc(SCC(=O)c2ccccc2)c(C#N)c(-c2ccco2)c1C(=O)NCc1ccco1	7	57	-24	3.1	8%
Cc1ccc(NC(=O)COC(=O)CNC(=O)c2ccc(Cl)cc2Cl)cc1S(=O)(=O)N1CCOCC1	·	-4	·	-0.6	·
CCOC(=O)c1c(-c2ccccc2)csc1NC(=O)CSc1ccccc1	12	8	-9	2.3	13%
Cn1c(=O)n(C)c2cc(S(=O)(=O)O)ccc21	5	-2	6	-1.8	-19%	Arbovirus inh repeat=7
CCN(Cc1ccccc1)S(=O)(=O)c1cc2[nH]c(=O)c(=O)[nH]c2cc1C	·	?	·	0.6	·
O=C(O)C1CC(=O)N(C2CCCCC2)C1c1ccccc1 (stereo unspecified)	3	-10	-42	-0.4	1%
COc1ccc(C(=O)NCc2c(C)oc(C)c2C(=O)O)cc1	·	9	·	-2.4	·
COCCNC(=O)c1ccc2c(=O)n(CCOC)c(=O)[nH]c2c1	5	?	-5	-2.8	3%	Arbovirus inh repeat=0
CN1C(C(=O)NCc2cccc(C(F)(F)F)c2)CC2Cn3c(nc4ccccc43)C21 (stereo unspecified)	·	-7	·	-2.6	0%
Cc1cccc(N(CC(O)CN(C)C)S(=O)(=O)c2ccccc2)c1 (stereo unspecified)	-3	-12	6	-0.6	-3%
COc1ccc(/C=C/C(=O)NC(C)C)cc1Br	-7	-11	-34	0.1	5%
Cc1[nH]c(=O)[nH]c(=O)c1NC(=O)c1cccs1	4	-6	-9	1.1	-8%
CN(CC(=O)Nc1ccc(S(=O)(=O)N2CCCC2)cc1)Cc1cccc(Cl)c1Cl	-9	1	-3	12	1%
CCOc1cc(Cl)c(S(=O)(=O)NCc2cccnc2)cc1Cl	·	21	·	0.3	·
C=CCOC(=O)C1=C[C@@H](c2ccc(Br)cc2)[C@H](CCCO)[C@@H](OCC)O1	6	-6	·	4.9	-4%
Cc1nnc(SCC(=O)Nc2nccs2)[nH]c1=O	4	29	-31	-5.6	-4%
COc1ccc(C(=O)N2CCN(Cc3cn[nH]c3-c3ccc(OC)cc3F)CC2)cc1	10	-5	·	-0.9	-4%

Reprinted from the part before: 2 entries, then new ones.
SMILES	Arbovirus inh	Mtb betalactam	YopH inh	RecA splice inh	Mtb growth	others
Cc1nnc(SCC(=O)Nc2nccs2)[nH]c1=O	4	29	-31	-5.6	-4%
COc1ccc(C(=O)N2CCN(Cc3cn[nH]c3-c3ccc(OC)cc3F)CC2)cc1	10	-5	·	-0.9	-4%
Cc1ccc(-c2nn(CC(=O)Nc3cccnc3)c(=O)c3ccccc23)cc1	-1	-2	9	3.5	3%
COc1ccc2[nH]cc(CCNC(=O)C3CCCCC3)c2c1	·	-4	·	1.1	·
Cc1cc(C)n(CCOc2nonc2N)n1	5	3	6	0.9	-7%
CC(C)NCc1nnc(-c2ccc(Cl)cc2)o1	1	5	·	-1.2	-10%
O=C(CCC(=O)N1CCOc2ccccc21)N1CCN(c2ccccc2)CC1	·	-1	·	0.9	·
CC1(C)Cc2c(sc3nc(NCCN4CCOCC4)n4ncnc4c23)CO1	2	-16	-28	1.9	1%
O=C(CN1CCC(Cc2ccccc2)CC1)Nc1ccc2c(c1)OCCO2	3	2	-20	1.3	1%
CC(C)C(=O)Nc1cccnc1	·	0	·	2.8	-1%
O=C(Nc1ccc(Cl)cc1)Nn1cnc2ccccc2c1=O	·	2	·	2.2	·
CC(C)C[C@H](NC(=O)c1nc[nH]c1C(=O)N1CCC(C)CC1)C(=O)OCc1ccccc1	·	6	·	-1.1	1%

4 entries picked at random from the list so far, as already listed:
SMILES	Arbovirus inh	Mtb betalactam	YopH inh	RecA splice inh	Mtb growth	others
COc1ccc2[nH]cc(CCNC(=O)C3CCCCC3)c2c1	·	-4	·	1.1	·
Cc1ccc(-c2nn(CC(=O)Nc3cccnc3)c(=O)c3ccccc23)cc1	-1	-2	9	3.5	3%
O=C(CN1CCC(Cc2ccccc2)CC1)Nc1ccc2c(c1)OCCO2	3	2	-20	1.3	1%
CC(C)C(=O)Nc1cccnc1	·	0	·	2.8	-1%

Continuation.
SMILES	Arbovirus inh	Mtb betalactam	YopH inh	RecA splice inh	Mtb growth	others
COCC(=O)Nc1nc(-c2ccc(-c3ccccc3)cc2)cs1	·	2	·	1.0	·
N#Cc1c(NC(=O)CCC(=O)O)sc2c1CCCCC2	-6	-1	·	1.6	1%
CCOC(=O)Cc1csc(NC(=O)CCC(=O)O)n1	·	-3	·	-0.7	-4%
O=C(c1cccc(C(F)(F)F)c1)c1c[nH]c(C(=O)NCC2CCCO2)c1 (stereo unspecified)	2	-6	·	0.0	-2%

Bioassay records (PubChem)
